Calb FLC – C. albicans growth inhibition with fluconazole, primary screen, CaCi-2 strain, Alamar Blue fluorescence. AID 1979, 2009. C. albicans CaCi-2 (fluconazole-resistant clinical isolate) + fluconazole, 48 h. growth inhibition, % (concentration not given with the values). hit rate 0.57% among 300,000;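 active = most replicates above 75%; inconclusive = exactly half above 75%; inactive = most below 75%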;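 also: all wells also contain fluconazole at 8 µg/ml as a sub-toxic cotreatment; 0% = median of DMSO wells and 100% = median of geldanamycin control wells; wells of about 8 µL received 7.5 nL stock; the first replicate is given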
LANA-H2B inh – blockers of LANA interaction with H2A/H2B – biochemical, FP readout, HTS, primary screen. cell-free LANA-H2A/H2B peptide, fluorescence polarization. AID 2629, 2010. inhibition, % (no concentration beside the values). hit rate 0.6% among 320,000; in the data active = inhibition mostly above about 10%, no sharp cut-off; inactive = mostly below about 6.7%;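 also: stock transfer was 7.5 nL into about 10 µL; 0% = median of vehicle wells and 100% = median of positive control wells; one replicate is shown; the record names a cut of 25% in any replicate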
Beta cell apopt – inhibitors of cytokine-induced beta cell apoptosis, primary screen, luminescence | INS-1E cytokine-induced death, ATP luminescence, 48 h; percent of positive-control rescue, neutral wells zero | protection from apoptosis, % (concentration not given with the values) | hit rate 0.8% among 300,000 | AID 435005, 2010;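 active = all replicates at 75% or more, or half of them and the mean; inconclusive = half reach 75% but not the mean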;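 also: 0% = cytokine-treated negative control wells and 100% = positive control rescue; higher means more ATP so stronger rescue from cytokine killing; wells of about 40 µL received 100 nL stock; the first replicate is given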
UCH37 DUB inh – inhibitors of human UCH37 deubiquitinase, primary screen, biochemical, Ub-AMC cleavage, fluorescence | Ubiquitin carboxyl-terminal hydrolase isozyme L5 (Homo sapiens), Q9Y5K5 | purified proteasome/UCH37 | hit rate 0.33% among 330,000 | inhibition, % (concentration not given with the values);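 active = mean of two replicates above 20%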;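 also: 0% = compound-free wells with enzyme and 100% = wells lacking proteasome; stock transfer was 100 nL into about 20 µL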
Target sequence (Q9Y5K5 whole entry, looked up): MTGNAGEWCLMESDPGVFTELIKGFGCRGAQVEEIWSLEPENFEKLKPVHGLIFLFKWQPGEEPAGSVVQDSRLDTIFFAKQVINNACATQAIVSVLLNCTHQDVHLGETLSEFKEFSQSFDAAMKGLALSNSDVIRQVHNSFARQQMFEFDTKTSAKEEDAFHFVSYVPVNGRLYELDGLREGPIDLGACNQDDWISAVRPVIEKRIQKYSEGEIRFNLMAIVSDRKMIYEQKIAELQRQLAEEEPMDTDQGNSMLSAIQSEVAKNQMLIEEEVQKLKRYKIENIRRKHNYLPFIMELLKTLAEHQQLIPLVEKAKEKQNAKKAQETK
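System: Proteasome-associated human UCH37 deubiquitinase; Input: 0.15 nM proteasome in added enzyme buffer; Also added: Ub-AMC substrate from 1 µM stock; Incubation: 30 min compound-proteasome preincubation then 25 min substrate reaction, room temperature; Detection: fluorescence, ex 355 nm, em 460 nm; Read-out: % inhibition of Ub-AMC cleavage fluorescence; Benchmarks: no-proteasome and no-compound wells.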
RanGTP-Impb inh – inhibitors of RanGTP-importin-beta interaction, primary screen, biochemical, FRET, CFP-Ran, YFP-importin-beta, homogeneous; cell-free CFP-Ran/YFP-importin-beta FRET ratio; inhibition, % (no concentration beside the values); hit rate 1.1% among 300,000; Ran GTPase (GTP-bound) - importin-beta complex; AID 2216, 2009;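 active = most replicates above 15%; inconclusive = exactly half above 15%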;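 also: 0% = DMSO wells and 100% = Ran loaded with GDP instead of GTP; wells of about 40 µL received 100 nL stock; the first replicate is given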
B2AR ag – beta2AR agonists driving receptor internalization, primary screen, cell-based, FAP fluorogen, flow cytometry; Am2.2-beta2AR cells; reference of the scale not given here; response, % (no concentration beside the values); hit rate 0.43% among 340,000; AID 504454, 2011;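 active = response above a set limit, near 3 SD of response in nonfluorescent compounds, cut at about 42% in these data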;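 also: stock transfer was 100 nL into about 11 µL; a reference agonist was the positive control; negative values mostly stem from fluorescent compounds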
Target sequence (P07550 whole entry, looked up): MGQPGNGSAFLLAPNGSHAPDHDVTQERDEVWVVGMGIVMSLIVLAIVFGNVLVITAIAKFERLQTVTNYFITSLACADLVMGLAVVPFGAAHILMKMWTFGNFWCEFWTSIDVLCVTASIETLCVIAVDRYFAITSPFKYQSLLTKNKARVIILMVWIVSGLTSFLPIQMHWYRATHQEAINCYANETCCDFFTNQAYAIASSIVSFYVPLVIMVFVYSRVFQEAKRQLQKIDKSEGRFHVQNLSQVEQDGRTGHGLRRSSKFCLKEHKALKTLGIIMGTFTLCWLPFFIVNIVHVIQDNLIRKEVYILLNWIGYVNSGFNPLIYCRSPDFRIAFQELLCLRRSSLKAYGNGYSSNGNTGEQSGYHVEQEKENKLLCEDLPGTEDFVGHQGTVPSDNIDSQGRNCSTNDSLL
T cruzi inh – inhibitors of intracellular T. cruzi growth, primary screen, luminescence, NIH3T3 host cells. AID 1885, 2009. T. cruzi beta-gal in NIH3T3, 90 h. hit rate 1.4% among 300,000. inhibition, % (no concentration beside the values);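 active = mean inhibition across valid replicates above about 55%, limit read from the data; inconclusive = mean below that limit but half or more replicates reach it; inactive = mean below it, under half of replicates reach it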;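 also: signal also drops with host cell toxicity which is not excluded here; 0% = plate median of DMSO wells and 100% = zero luminescence signal; higher percent means less beta-gal luminescence so fewer parasites; stock transfer was 50 nL into about 50 µL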
Bfl-1 A1 inh – caspase 3/7 activation in MEF A1-2A-BIM cells, primary screen, A1 inhibitor project, cell-based, luminescence, HTS. Caspase-Glo 3/7 luminescence, 3 h; percent of clofoctol response, vehicle zero. caspase activation, % (no concentration beside the values). hit rate 0.066% among 330,000;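 active = over half of replicate activation scores above 10%, or exactly half above 10 with the replicate mean above 10; inconclusive = replicate mean below 10 yet half the replicates above 10; inactive = over half of replicates below 10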;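 also: wells of about 30 µL received 50 nL stock; many hits fall short of the cut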
* = called active by the depositor; ? = inconclusive; . = no result given.

Molecule | Calb FLC | LANA-H2B inh | Beta cell apopt | UCH37 DUB inh | RanGTP-Impb inh | B2AR ag | T cruzi inh | Bfl-1 A1 inh
COc1cc2ccccc2cc1C(=O)N(CCN(C)C)c1nc2c(F)cccc2s1 | 12 | -1.0 | -4 | -1.2 | ? | -1 | 39 | -0.5
Cc1cc(C(=O)N/N=C/c2c(C)nn(-c3ccccc3)c2C)c(C)o1 | -3 | -0.9 | 0 | . | 0.2 | 9 | -16 | -6.7
COc1ccccc1-c1noc2ncnc(Nc3ccc4c(c3)OCO4)c12 | -4 | 0.3 | -7 | 0.4 | -2.3 | -1 | -18 | 0.5
C/C(=N/NC(=O)c1ccc(C)s1)c1ccncc1 | -11 | -3.1 | -3 | . | 0.7 | -7 | -17 | 0.3
COc1ccc(C=C(c2nc3ccccc3s2)c2nc3ccccc3s2)cc1O | -11 | -1.3 | 5 | 4.5 | 11 | -59 | 24 | 0.9
CCN(CC)S(=O)(=O)c1ccc(C(=O)NCC(=O)NC2CC2)cc1 | -1 | 2.5 | 3 | 1.7 | -2.0 | 2 | -7 | 0.6
Nc1nc(-c2ccc(Oc3ccccc3)cc2)c(CC(=O)O)s1 | 9 | -1.7 | -4 | 2.1 | -2.4 | 10 | -3 | -0.1
COCC1CCCN(Cc2cn[nH]c2-c2cc3ccccc3o2)C1 (stereo unspecified) | 1 | -5.1 | 2 | 1.1 | ? | -1 | 36 | -0.5
COc1ccc(C(=O)Nc2ccc(NC(=O)C(C)C)nc2)cc1 | 3 | -3.0 | -6 | -0.7 | -2.7 | -4 | -1 | 0.5
Cc1cc(CN2CCC(n3nccc3NC(=O)c3ccccc3C)CC2)n[nH]1 | -17 | -4.0 | -1 | 4.8 | -0.6 | -5 | -4 | 1.7
Cc1ccc2nc(/C(C#N)=C/c3ccccc3C(=O)O)[nH]c2c1 | 23 | -3.2 | -5 | -23 | 8.4 | 1 | 12 | -0.2
COc1ccc(-n2c(Cc3cccn3C)nnc2SCC(=O)NCC2CCCO2)cc1 (stereo unspecified) | 16 | 1.9 | -3 | 4.3 | -0.8 | -4 | 4 | -0.3
c1ccc(CNc2nc3ccccc3n3cnnc23)cc1 | 1 | 1.6 | . | -2.4 | -1.7 | -8 | -2 | 0.6
CC(=O)N(C)/C=C1\Sc2ccccc2C1=O | -6 | 5.1 | 4 | 2.1 | ? | 5 | -15 | 0.6
COC(=O)c1ccc(Cn2cc(C(F)(F)F)cc([N+](=O)[O-])c2=O)cc1 | -3 | 0.1 | 5 | 2.8 | -3.7 | 2 | ? | 0.1

Molecule | Calb FLC | LANA-H2B inh | Beta cell apopt | UCH37 DUB inh | RanGTP-Impb inh | B2AR ag | T cruzi inh | Bfl-1 A1 inh
Cc1ccc2oc(=O)c(/C=C(\O)c3cccs3)nc2c1 | 20 | 4.3 | -7 | 5.6 | -3.5 | -64 | -3 | 2.4
CS/C(=N\S(=O)(=O)c1ccccc1)c1ccccc1 | 14 | -5.4 | -7 | . | 2.9 | -7 | -8 | 0.7
N#CC1(NC(=O)CN2C(=O)c3ccccc3C2=O)CCCCC1 | . | 2.4 | 3 | 1.9 | . | 3 | . | 0.0
O=C(NCCN1CCOCC1)c1ccc(CS(=O)(=O)Cc2ccccc2F)o1 | 1 | 4.6 | -3 | -3.0 | -4.1 | -5 | -11 | -0.6
CC1CCCCN1C(=O)Cn1c(=O)oc2cc(S(=O)(=O)N3CCCC3)ccc21 (stereo unspecified) | -6 | 4.9 | -2 | 4.4 | 17* | 6 | -5 | 0.3
CN(C)c1nc(C(N)=O)nc(N2CCOCC2)n1 | -11 | -2.2 | -4 | 0.4 | -4.5 | 10 | -8 | -1.2
Cc1ccc(NC(C#N)c2ccccc2OCc2ccccc2)cc1 (stereo unspecified) | -17 | 0.0 | -7 | 0.5 | 1.6 | -4 | -2 | -0.9
CCCN(CC(=O)Nc1cc(Cl)ccc1Cl)C(=O)/C=C/c1ccco1 | -22 | 3.8 | -4 | 2.9 | -1.6 | -19 | 2 | -0.2
CC(=O)C1=C(O)CC(c2ccccc2)CC1=NCCc1c(C)[nH]c2ccc(C)cc12 (stereo unspecified) | -1 | -0.3 | 4 | 3.7 | 0.4 | 4 | 16 | 0.7
CN1CCN(c2ccccc2NC(=O)C(Cc2ccccc2)n2cccc2)CC1 (stereo unspecified) | -5 | -2.7 | 15 | 0.5 | -2.3 | 35 | 20 | -0.2
COc1ccc(N(CC(=O)Nc2ccc(S(=O)(=O)N3CCOCC3)cc2)S(=O)(=O)c2ccc(F)cc2)cc1 | 47 | 2.1 | . | 3.3 | -10 | 27 | 4 | 0.3
O=C(OC1CCCCC1=O)c1cc(=O)c2ccccc2o1 (stereo unspecified) | 0 | -1.3 | -3 | -0.3 | 2.6 | -6 | -11 | -0.2
CC(NC(=O)CSCc1ccccc1Br)c1ccccc1 (stereo unspecified) | 1 | -0.1 | -5 | 6.5 | ? | -10 | -4 | 0.4
CN(CCO)c1ccc(-c2n[nH]c(=O)c3ccccc23)cc1[N+](=O)[O-] | 0 | 0.8 | -2 | 4.4 | -6.6 | -5 | -9 | 1.1
CCOC(=O)C1(CC2CCCCO2)CCN(Cc2cc(F)ccc2-n2cccn2)CC1 (stereo unspecified) | 11 | 4.4 | 2 | -1.9 | 2.0 | 3 | -28 | -0.1

Molecule | Calb FLC | LANA-H2B inh | Beta cell apopt | UCH37 DUB inh | RanGTP-Impb inh | B2AR ag | T cruzi inh | Bfl-1 A1 inh
COc1cccc(-c2cc(N)nn2C(=O)Nc2ccc(Cl)cc2)c1 | -4 | -0.6 | -3 | 2.4 | 2.9 | 12 | 8 | -0.9
COc1ccc(OC)c(/C=N/NC(=O)CC(=O)NCc2ccccc2)c1 | ? | 4.8 | -9 | . | 0.3 | -5 | -6 | 0.2
O=C(c1ccc2c(=O)n(C3CCCC3)c(=S)[nH]c2c1)N1CCCCCC1 | 7 | -11 | 38 | 3.8 | 4.5 | 6 | 50 | -0.2
CCOc1ccc(OCc2ccc(C(=O)Nc3cccnc3)o2)cc1 | -8 | 1.1 | -14 | -1.0 | 0.3 | 5 | -16 | -1.6
CN(C(=O)C1CCC(=O)N(C2CC2)C1)C1CCCCC1 (stereo unspecified) | -6 | -3.2 | -5 | 0.6 | ? | 4 | 6 | 0.1
Cc1ccccc1NC(=O)CSc1nc2scc(C)c2c(=O)[nH]1 | 0 | -0.7 | 5 | 3.0 | -1.1 | 5 | 6 | -0.2
CCCn1c(SCC(=O)N2CCN(C(C)=O)CC2)nc2sc3c(c2c1=O)CCC3 | 19 | 4.1 | 2 | 9.4 | -2.1 | -2 | 1 | -0.2
O=c1oc2ccc3ccccc3c2c2c1SC(C(F)(F)F)C2 (stereo unspecified) | -11 | 0.0 | 3 | . | 9.9 | 10 | . | -0.2
O=C(Nc1nc(-c2ccc(F)c(F)c2)cs1)c1cnccn1 | -2 | -3.9 | 5 | 2.7 | -0.4 | -8 | -4 | -1.0
CCOc1ccccc1NC(=O)COc1coc(CN2CCCc3ccccc32)cc1=O | -4 | -4.7 | . | 3.2 | -0.6 | 8 | 3 | 0.2
O=C(Nc1cccs1)Nc1ccccc1Cl | 11 | 2.8 | 7 | 3.4 | 2.9 | 10 | 5 | 0.3
COc1ccc(/C=C/c2nc(S(=O)(=O)c3ccccc3)c(NCCCN(C)C)o2)cc1OC | -3 | 4.1 | -15 | -55 | -1.1 | 9 | 22 | -0.1
COc1ccccc1OCCNC(=O)c1ccc(Br)cc1 | 3 | -2.4 | . | 1.8 | ? | -12 | 5 | 0.1
CCn1nc(C)cc1C(=O)N1CCCC(N2CCN(c3cccc(Cl)c3)CC2)C1 (stereo unspecified) | -12 | -2.3 | . | . | -4.2 | 4 | 16 | 0.5
CN1CCN(C2=C(Cl)C(=O)N(Cc3ccccc3)C2=O)CC1 | -27 | 2.0 | -5 | 1.6 | -10 | 4 | -14 | -0.9

Molecule | Calb FLC | LANA-H2B inh | Beta cell apopt | UCH37 DUB inh | RanGTP-Impb inh | B2AR ag | T cruzi inh | Bfl-1 A1 inh
Nc1[nH]n(-c2ccccc2)c(=O)c1N=Nc1ccc2ncsc2c1 | -2 | 2.6 | -8 | 4.8 | -2.4 | 1 | 4 | -0.3
O=C(Nc1sc2c(c1-c1nc3ccccc3[nH]1)CCCC2)C1CCCC1 | 6 | -4.0 | 8 | -185 | -6.6 | 5 | 40 | -1.3
CCC1CCCCN1c1nc2c(C=O)c(C)nn2c2ccccc12 (stereo unspecified) | 4 | -0.6 | 4 | -158 | -0.6 | 2 | 26 | -1.3
CN1CCN(c2ccc(NC(=O)c3ccc([N+](=O)[O-])o3)cc2Cl)CC1 | 1 | -6.2 | -8 | 5.2 | 2.3 | 29 | 10 | 0.1
COc1ccccc1CNC(=O)CN1c2cccc3cccc(c23)S1(=O)=O | . | 0.9 | -4 | -49 | . | -3 | . | 0.5
OC1(c2ccc(Cl)cc2)CCN(Cc2cn[nH]c2-c2ccc(F)cc2)CC1 | 5 | 4.6 | 6 | . | -4.7 | 16 | -4 | 0.0
COc1ccc(N(C=O)C(=S)SC)cc1 | -8 | -6.7 | -4 | 6.7 | 3.5 | -4 | -19 | -0.3
CCOC(=O)COC(=O)c1ccc(Oc2cc(C)nc(SC)n2)cc1 | -7 | 0.2 | -1 | 1.1 | -2.8 | 1 | -4 | -0.5
Cc1ccc(NC(=O)n2ncc3c(C)cccc32)c(C)c1 | 4 | 0.8 | 0 | 1.4 | 3.4 | -13 | -13 | 0.1
Cc1onc(-c2c(Cl)cccc2Cl)c1NC(=O)N(C)N | -4 | -0.2 | -4 | 3.3 | 5.8 | 0 | 0 | -0.2
O=C(NO)c1ccc(C(=O)N(C2CCCCC2)C2CCCCC2)cc1 | 45 | -3.0 | 15 | 3.2 | -1.0 | 16 | 26 | 1.1
O=C(COC(=O)c1ccncc1)NC(=O)C1CCCCC1 | -3 | . | . | -4.3 | 0.2 | -3 | -7 | .
Cc1ccc(S(=O)(=O)NCc2cn3c(C)csc3n2)cc1 | 17 | 0.5 | -7 | 2.0 | 0.3 | 3 | -31 | 1.7
CCN(C(=O)CSc1nc(C)cc(=O)[nH]1)C1CCCCC1 | . | 8.1 | -2 | 4.0 | . | 0 | . | -0.4
Cc1cc(C)n2ncc(C(=O)Nc3ccc(Cl)c(Cl)c3)c2n1 | -3 | -2.2 | 3 | 6.9 | 3.0 | -11 | 23 | -1.1
CCOc1ccc(-n2c(=S)sc3c(=O)n(-c4ccccc4)c(SC)nc32)cc1 | 32 | 5.0 | -9 | 5.6 | 1.9 | -16 | 25 | -0.1

Screening results (PubChem BioAssay)
